HPGD inh: HPGD (human) dehydrogenase inhibition. P15428. purified HPGD, NADH fluorescence kinetic, PGE2 substrate. Potency, µM, for inactives: at the top dose activity change, negative = inhibition, actives largely listed as inhibitors. 150,000 tested, 4.3% active; active = well fitted inhibition curve with a large enough effect (not every such curve was filed as active); inconclusive = small, poorly fitted or top-dose-only effect, or another doubt; inactive = no such curve, though single readings can be large or run the other way;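 note: top concentration of the series not given in the record; plate controls included wells without enzyme; inactives centre near -10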
Target sequence (P15428 whole entry, looked up): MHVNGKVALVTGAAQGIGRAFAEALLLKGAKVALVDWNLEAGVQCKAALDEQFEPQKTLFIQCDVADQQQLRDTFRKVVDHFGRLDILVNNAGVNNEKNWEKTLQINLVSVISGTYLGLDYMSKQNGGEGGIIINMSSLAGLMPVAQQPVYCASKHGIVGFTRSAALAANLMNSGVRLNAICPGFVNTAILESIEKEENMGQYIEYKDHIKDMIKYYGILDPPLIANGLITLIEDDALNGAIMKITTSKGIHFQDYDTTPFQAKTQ
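20 nM HPGD preincubated 15 min at room temperature with compound in 50 mM Tris-HCl pH 8, 0.01% Tween 20. Started with 1 mM NAD+ and 30 uM prostaglandin E2; NADH fluorescence (360/450 nm) read 5 times over 30-s intervals, last minus first.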
Numbers without * were called inactive; ? = inconclusive. % is set by controls: 0 for no effect and ±100 for the full control effect; potency is the fitted concentration of half-maximal effect.

compound	HPGD inh
CCOc1ccccc1C(=O)N(C)Cc1cc2ccccc2[nH]c1=O	-28.3%
c1ccc(-c2nnn(CCN3CCCCC3)n2)cc1	-11.1%
O=C(COC(=O)[C@H](Cc1c[nH]c2ccccc12)NC(=O)c1ccc(Cl)cc1)Nc1ccc2c(c1)OCO2	-15.5%
COC(=O)CN1C(=O)C(O)=C(C(C)=O)C1c1ccc([N+](=O)[O-])cc1 (stereo not drawn)	-17.2%
CC(=O)NCCOc1ccc2oc3ccccc3c2c1	-13.3%
CC(C)NC(=O)NC(=O)COC(=O)c1cccc(S(=O)(=O)N2CCCCC2)c1	-14.2%
Oc1ccc(C=Nc2ccc3ncccc3c2)c(O)c1	?
Cc1cccc(NC(=S)N2CCN(C(=O)C3CCCO3)CC2)c1 (stereo not drawn)	-1.9%
CC(C)CC(=O)N1CCN(Cc2cccc(F)c2)CC1	-15.3%
Clc1ccc(CSc2nnc(Cn3cnc4ccccc43)o2)cc1	-23.6%
O=C(NN=C1CCC(c2ccccc2)CC1)c1ccccc1-n1cccc1 (stereo not drawn)	-3.6%
CCCOCC1CC(CCc2nc(=S)[nH][nH]2)C(=O)O1 (stereo not drawn)	-24.4%
Cc1onc(-c2ccccc2)c1C(=O)NCC1COc2ccccc2O1 (stereo not drawn)	-9.6%
Cc1ccc(-c2noc(CCC(=O)Nc3cccc(C#N)c3)n2)cc1	-6.0%
COCCn1c(=NC(=O)c2sc3ccccc3c2Cl)sc2cc(S(N)(=O)=O)ccc21	?
CC(=O)O[C@]12CC[N@+]3(C)CCCC[C@@H]3[C-]1Nc1ccccc12	-3.7%
CC(=O)N[C@@H]1CONC1=O	-2.0%
COc1ccccc1NC(NC(=O)c1ccco1)C(=O)c1ccccc1 (stereo not drawn)	-10.4%
CN(CC(=O)O)CC(=O)O	0.4%
Oc1c(/C=N/Nc2cccc3cccnc23)ccc2ccccc12	-10.3%
FC(F)(F)c1ccc(Sc2nnc(-c3cccs3)n2CC2CCCO2)nc1 (stereo not drawn)	-12.2%
N#C/C(=C\c1cn(CCOc2ccccc2)c2ccccc12)C(=O)NCc1cccs1	-13.1%
CN(C)CCN(C(=O)/C=C/c1cccs1)c1nc2ccc(F)cc2s1	?
CCN(CC)S(=O)(=O)c1cc(C(=O)OC)ccc1Cl	-14.9%
O=C1C2=C(NC(=S)NC2c2ccc(Cl)cc2)NC(c2ccc(Cl)cc2)N1c1ccc(Cl)cc1 (stereo not drawn)	-7.1%
CCN(CC)c1ccc2cc(NC(=O)CCC(=O)O)c(=O)oc2c1	?
CCCn1c(=O)c(-c2ccccc2)c(O)c2ccccc21	-18.2%
CCCCCSc1nnc(C)c(=O)[nH]1	-12.1%
COc1cccc(NC(=O)CCC(=O)NCc2ccco2)c1	-2.8%
Cc1ccc(NC(=O)c2ccc(C(C)(C)C)cc2)cc1[N+](=O)[O-]	-22.2%
Cc1noc(C)c1S(=O)(=O)N1CCC(C(=O)N2CCC(C)CC2)CC1	?
O=C(NNS(=O)(=O)c1ccc2ccccc2c1)c1cc(-c2ccccn2)nc2ccccc12	-12.3%
COc1ccc(OCCOc2ccc(C)nc2[N+](=O)[O-])cc1	-24.2%
Cc1ccc(CN2C(=O)C(C)(C)Oc3ccc(C(=O)N4CCCCC4)cc32)cc1	31.6µM*
CCCC[C@@H]1C[C@H]1C(NC(=O)c1cccs1)c1ccc(-c2ccccc2)cc1 (stereo partly drawn)	-7.3%
CCC(C)NC(=O)CN(c1cc(C)ccc1OC)S(C)(=O)=O (stereo not drawn)	0.9%
N#CC(C#N)=C/C(C#N)=C(/N)N1CCN(c2ccc(Cl)cc2)CC1	?
O=C(N/C(=C\c1ccccc1)C(=O)N1CCN(CCO)CC1)c1ccccc1	-1.0%
CCCOc1ccc(C2=NNC(c3cccs3)=Nc3ccc(OC)cc32)cc1	-22.8%
COC(=O)C1C(c2ccccc2)C(C(=O)N2CCOCC2)C1c1ccccc1 (stereo not drawn)	-2.7%
N#CC(C#N)=C1C=C2C=C(N3CCCCCC3)CCC2CC1 (stereo not drawn)	-10.7%
C=CCc1c(C)nc(SC)nc1Nc1ccccc1	-24.8%
Cc1cc(C(=S)N2CCOCC2)c(C)n1-c1ccc(Cl)cc1	28.2µM*
Cc1cc(C)n(-c2nc3ccccc3nc2N2CCN(S(=O)(=O)c3ccc(F)c(C)c3)CC2)n1	?
CCCCSc1nnc(CCCCCNC(=O)OC(C)(C)C)o1	-22.7%
C=CCn1cc(C(=O)NCc2ccc3c(c2)OCO3)c(=O)c2cc(S(=O)(=O)N(CC)CC)ccc21	?
O=C(Nc1ccc(OC(=O)c2cccs2)cc1)c1ccco1	-11.1%
Cc1ccc(C(=O)C2C(c3cccs3)NC(=O)NC2(O)C(F)(F)F)cc1 (stereo not drawn)	-9.4%
Cc1nc2ccc(NC(=O)c3nn(C(C)C)c(=O)c4ccccc34)cc2s1	-5.7%
COc1cccc(C2NC(=O)NC(C)=C2C(=O)Nc2cccc(C)c2C)c1 (stereo not drawn)	-11.9%
COc1ccccc1-c1nnc2sc(COc3ccc(F)cc3)nn12	?
Cc1ccc(N(CC(=O)Nc2ccc(-c3nc4ccc(C)cc4s3)cc2)S(C)(=O)=O)cc1	?
COCCNC(=O)C(c1cccc(OC)c1)N(C(=O)Cn1nnc2ccccc21)c1cccnc1 (stereo not drawn)	-11.1%
CCn1c(C(C)NC(=O)Cc2ccccc2)nc2ccccc21 (stereo not drawn)	-11.4%
Cn1ncc(Cl)c(Oc2ccc(Cl)cc2)c1=O	-6.0%
O=[N+]([O-])c1ccc(Sc2ccc(Cl)c(Cl)c2)nc1	-10.1%
O=C(O)c1cccc(NCc2cccnc2)c1	-3.9%
Cc1nn(C)cc1C=NCCOCc1ccccc1	-3.8%
O=C(CCCO)c1ccc2c(c1)OCCO2	-10.6%
CCN1CCN(c2nc3c(c(=O)[nH]c(=O)n3C)n2CCCSc2ncccn2)CC1	-18.2%

Later entries.
compound	HPGD inh
O=C1Nc2ccc(S(=O)(=O)N3CCCCCC3)c3cccc1c23	-6.1%
COc1ccccc1NC(=O)/C(=C/c1cccc([N+](=O)[O-])c1)c1ccccc1	-12.0%
O=C(NCc1ccc(Cl)cc1)c1ccc2nc[nH]c2c1	-1.9%
Cc1ccccc1N1C(=O)CC(N2CCC(C(N)=O)CC2)C1=O (stereo not drawn)	7.5%
COc1ccc(CNc2nc3c(c(=O)n(Cc4ccc(Br)cc4)c(=O)n3C)n2C)cc1	-10.2%
CCCOc1ccccc1-c1nc(SCCC(=O)O)n[nH]1	-18.5%
CN(C)S(=O)(=O)c1cc(NC(=O)CN2C(=O)NC3(CCCc4ccccc43)C2=O)ccc1Cl (stereo not drawn)	-12.7%
O=C(COc1ccc(Cl)cc1)Nc1ccc(N2CCN(C(=O)c3ccco3)CC2)cc1	-14.4%
O=C(Nc1ccccn1)C(NS(=O)(=O)c1cccc2nsnc12)c1ccccc1 (stereo not drawn)	31.6µM*
CCCn1c2c(c(O)c(C(=O)NCCCN(CC)CC)c1=O)CCCC2	-13.1%
COc1ccc(CNC(=O)COC(=O)c2ccc3c(c2)OCCO3)cc1	-28.4%
Cc1ccc(C(=O)N/C(=C/c2cccnc2)C(=O)NCc2ccco2)cc1	-11.6%
COc1ccccc1NS(=O)(=O)c1cccc(C(=O)N/N=C/c2ccc3c(c2)OCCO3)c1	-6.3%
CCn1c2ccccc2c2cc(CN3CCN(S(=O)(=O)Cc4ccccc4)CC3)ccc21	?
COc1ccc(CC(=O)Nc2ccc3c(C)cc(=O)oc3c2)cc1OC	?
Cc1ccc(-c2cc(-c3ccc(F)cc3)c(C#N)c(N)n2)o1	?
COC(=O)c1cc(NS(=O)(=O)c2ccc(N3CCOCC3)c(N)c2)cc(C(=O)OC)c1	-19.0%
CC(C)OCCCNc1ncnc2c1[nH]c1ccccc12	-28.2%
CCN(CC)c1ccc(/C=N/OCC(=O)N2CCCc3ccccc32)cc1	-24.9%
CCCCCCNC(=O)C(C#N)c1nc2ccccc2nc1N1CCCC1 (stereo not drawn)	?
CC(CCc1ccccc1)NC(=O)COC(=O)c1cccc2ccccc12 (stereo not drawn)	?
COc1ccc2nc(-c3ccco3)c(-c3ccco3)nc2c1	?
O=[N+]([O-])c1ccc(CSc2nnc(SCc3ccccc3)s2)cc1	-4.9%
Cc1cc2oc(=O)cc(-c3ccccc3)c2c(C)c1-c1ccc(OC(F)(F)F)cc1	0.1%
O=C(c1ccc(COc2ccccc2[N+](=O)[O-])o1)N1CCCCC1	22.4µM*
O=c1c2ccccc2nc2n1C(CSc1ccc(Cl)cc1)CN2 (stereo not drawn)	-2.7%
COc1ccc(O)c(-c2cc(-c3cccs3)[nH]n2)c1	?
CCOC(=O)C1=NN(c2ccc(OC)cc2)C(c2ccccc2)CC1=O (stereo not drawn)	-24.0%
FC(F)(F)c1cc(NC(=S)Nc2ccc3cc4ccccc4cc3c2)cc(C(F)(F)F)c1	-16.6%
c1ccc(C2C3=C(Nc4ncnn42)c2ccccc2CCC3)cc1 (stereo not drawn)	-18.2%
CCC(=O)Nc1cccc(NC(=O)c2cc3ccccc3o2)c1	-8.1%
CCc1nc2scc(-c3ccccc3)c2c(=O)n1N	-6.1%
O=C1C(=O)N(CCO)C(c2cccc(F)c2)/C1=C(\O)c1ccc(Cl)cc1 (stereo not drawn)	-8.8%
Cc1ccc(-n2c(C)n[nH]c2=S)cc1	-15.7%
O=C(Cn1nnc2ccccc2c1=O)N[C@@H](Cc1c[nH]c2ccccc12)C(=O)O	-23.4%
O=C(CSc1nc2ccccc2c(=O)n1Cc1ccco1)c1ccccc1	-13.5%
O=C(O)CC1SC(=O)N(Cc2ccccc2)C1=O (stereo not drawn)	-7.1%
NCC(=O)N[C@H](CO)C(=O)O	-11.9%
CCCCC(=O)Nc1ccc(C(=O)N2CCN(C)CC2)cc1	14.1µM*
Cc1c(NC(=O)C2CCCN2S(=O)(=O)c2cccc3nsnc23)cccc1C(=O)O (stereo not drawn)	-5.7%
COC(=O)c1ccccc1NC(=O)CSCC(=O)Nc1ccc(F)cc1	-6.4%
CCOC(=O)C1=C(c2ccccc2)NC(=S)NC1c1cc([N+](=O)[O-])ccc1OC (stereo not drawn)	-6.9%
Cc1onc(-c2ccccc2Cl)c1C(=O)Nc1ccccc1	-1.3%
O=C(c1noc2c1CCCC2)N1CCCCC1	?
Cc1cccc(N2CCN(C(=O)c3ccncc3)CC2C)c1 (stereo not drawn)	-1.8%
C=CCNC(=O)c1onc(CSc2cccc(C)c2)c1C(=O)O	-20.1%
Cc1cc(NC(=O)CSc2nc3cc4c(cc3c(=O)n2CCc2ccccc2)OCO4)no1	-8.0%
Cc1ccc2c(CC(=O)N3CCc4ccccc43)coc2c1	-16.3%
CC1=NN(c2ccccc2)C(=O)[C@@H]1N=Nc1ccc(S(N)(=O)=O)cc1	-7.5%
CCN(Cc1ccccc1)S(=O)(=O)c1ccc(S(=O)(=O)N(Cc2cccc(OC)c2)CC2CCCO2)cc1 (stereo not drawn)	-13.6%
Cn1c(SCC(=O)N2CCCc3ccccc32)nnc1-c1cccs1	-2.5%
COC(=O)C1=C(C)N=C2SCCC(=O)N2C1c1cccs1 (stereo not drawn)	-8.4%
CCn1cc([N+](=O)[O-])nc1C	-4.4%
CC1CC(C(F)F)n2nc(C(=O)O)cc2N1 (stereo not drawn)	-5.8%
COc1ccc([N+](=O)[O-])cc1NC(=O)Cc1ccc(Cl)cc1	-11.0%
O=C(Nc1ccc(-c2nnc3n2CCCCC3)cc1)c1cc2ccccc2o1	2.24µM*
Cc1nnc(NC(=O)C2CCCCC2)s1	-11.8%
Cc1ccc(NC(=O)COC(=O)c2ccnn2C)cc1	-5.6%
O=C(CNS(=O)(=O)c1ccccc1F)Nc1ccc(N2CCOCC2)cc1	-9.4%
CCCNS(=O)(=O)c1ccc(CCC(=O)Nc2ccc3c(c2)OCO3)cc1	2.1%
NC12CC3CC(C1)CC(CO)(C3)O2	-5.8%
Cc1ccc(-c2nn(-c3ccccc3)cc2C=C2C(=O)CC(C)(C)CC2=O)cc1	-17.4%

Only part of the results is shown, so the mix of outcomes need not match the whole.
